AmpC nodet inh: inhibitors of E. coli AmpC beta-lactamase without detergent; P00811; AmpC nitrocefin hydrolysis, absorbance 480 nm, no detergent; potencies from a single point are estimates; Potency, µM (doses to about 28.7 µM), without a hit: top-dose activity change, negative = inhibition; actives 1.8% (n = 71,000); AID 585; active = falling curve, for most hits resting on a single point; inconclusive = weak or doubtful change; inactive = flat or rising curve; note: % of control where 0% means no effect; about half of the hits show no inhibition at the top dose; a quarter of the inactives give rising signals
Target sequence (P00811 whole entry, looked up): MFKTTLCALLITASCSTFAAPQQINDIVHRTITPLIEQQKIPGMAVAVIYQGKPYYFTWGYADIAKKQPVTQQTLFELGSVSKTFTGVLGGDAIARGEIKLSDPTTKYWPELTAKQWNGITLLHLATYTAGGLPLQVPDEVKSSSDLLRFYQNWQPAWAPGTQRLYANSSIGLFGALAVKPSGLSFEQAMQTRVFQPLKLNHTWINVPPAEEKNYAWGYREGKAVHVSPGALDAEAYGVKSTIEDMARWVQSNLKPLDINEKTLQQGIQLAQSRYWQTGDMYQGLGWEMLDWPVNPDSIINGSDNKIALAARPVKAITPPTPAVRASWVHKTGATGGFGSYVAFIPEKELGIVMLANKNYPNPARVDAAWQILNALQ
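AmpC, 20 mM phosphate pH 7.0; 15 min cpd preinc, RT; start with nitrocefin (800 uM stock); A480 kinetic read, 20 s intervals, 4 min. No-enzyme wells = negative control.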
* = called active by the depositor; ? = inconclusive; [ ] = another dose, or the depositor's remark. Potency is the fitted concentration of half-maximal effect.

SMILES	AmpC nodet inh
Cc1ccc(P(=O)(CC(=O)O)c2ccc(C)cc2)cc1	-4.0%
CCCOc1ccc(C2C(C(=O)c3ccc(C)o3)=C(O)C(=O)N2Cc2cccnc2)cc1 (stereo not drawn)	5.8%
CC(C)C1C(C#N)=C(N)Oc2n[nH]c(-c3ccccc3)c21 (stereo not drawn)	-14.9%
Cc1csc2c(=O)n3c(nc12)CCCCC3	-0.8%
Cc1onc(-c2c(Cl)cccc2Cl)c1C(=O)NCCCN1CCOCC1	-4.0%
Cc1ccc(C(=O)Nc2ccc(S(=O)(=O)N3CCc4ccccc43)cc2)o1	1.8%
CC1CCN(c2nc3c(c(=O)n(C)c(=O)n3C)n2Cc2ccccc2)CC1	101.3%
Cc1cc(C(=O)N2CCN(c3ncccn3)CC2)cs1	-4.7%
O=C(O)c1cc2cc(OCc3ccccc3)ccc2[nH]1	?
COCc1nnc(SCC(=O)Nc2cccc(Cl)c2C)n1-c1ccccc1	66.9%
Cc1nn(CC(=O)O)c(C)c1C	-7.9%
O=C(Nc1ccc(O)cc1)C1CC=CCC1 (stereo not drawn)	12.6µM*[single pt active]
COc1ccc(C2C=C(c3ccc(Br)cc3)Nc3nc(N4C(=O)CCC4=O)nn32)cc1 (stereo not drawn)	106.9%
COCCNC(=O)C(C)N(c1ccc(Oc2ccccc2)cc1)S(C)(=O)=O (stereo not drawn)	101.6%
O=C(Nc1nnc(C2CC2)s1)C1Cc2ccccc2CN1S(=O)(=O)c1cccs1 (stereo not drawn)	-1.5%
COc1ccc(OC)c(C2=NO[C@@H]3C(=O)N(c4cc(Cl)ccc4OC)C(=O)[C@H]23)c1	0.9%
CCCC(=O)Nc1ccc(NC(=O)C2CC2)cn1	-12.0%
CCOC(=O)C1=C(C)N(C)C(C)=C(C(=O)OCC)C1c1cccnc1	54.7%
O[C@@H]1[C@@H]2c3cc4c(cc3CN3CCC(=C[C@@H]1O)[C@H]23)OCO4	-5.9%[12.8 µM]
CN1CCN(c2nc3c(c(=O)[nH]c(=O)n3C)n2CCSc2nc3ccccc3s2)CC1	49.8%
COc1ccc(Cn2nnnc2C(c2cc(OC)ccc2OC)N2CCC(C(N)=O)CC2)cc1 (stereo not drawn)	109.5%
CCOC(=O)c1cnc(SCC(=O)Nc2ccc(NC(C)=O)c(OC)c2)nc1N	9.3%
CCOC(=O)C12CNC(=O)C(C(=O)OCC)(CNC1=O)C2	-12.6%
Nc1nnc(CCN2CCCCC2)s1	-5.2%
COc1cccc(NC(=O)CN2CCN(S(=O)(=O)c3ccc(C(C)C)cc3)CC2)c1	79.9%
O=C(NC1CCCC1)C(c1cccs1)N(Cc1ccco1)C(=O)Cn1nnc(-c2cccs2)n1 (stereo not drawn)	-8.9%
COc1ccc([C@H](O)c2ccccn2)cc1	2.0%[5.75 µM]
O=C(O)c1ccc(C2SCC(=O)N2Cc2ccccc2)cc1 (stereo not drawn)	-7.5%
CC(NC(=O)COc1ccccc1)C1COc2ccccc2O1 (stereo not drawn)	14.8%
COc1ccc2c(c1OC)C(=O)N(c1ncn[nH]1)C2	-9.3%

Rewritten with each value named: entries from further up.
COCc1nnc(SCC(=O)Nc2cccc(Cl)c2C)n1-c1ccccc1
  AmpC nodet inh = 66.9%

Cc1csc2c(=O)n3c(nc12)CCCCC3
  AmpC nodet inh = -0.8%

COc1ccc2c(c1OC)C(=O)N(c1ncn[nH]1)C2
  AmpC nodet inh = -9.3%

Continuation:
SMILES	AmpC nodet inh
Cc1ccccc1-n1c(=O)cc(NCC2CCCO2)[nH]c1=O (stereo not drawn)	-5.2%
Cc1c(OC(=O)CNC(=O)OC(C)(C)C)ccc2c3c(c(=O)oc12)CCC3	64.6%
O=C1Nc2cc3c(cc2Sc2ccccc21)OCCO3	0.2%
COc1cccc(-c2nc(CS(=O)(=O)CC(=O)Nc3cc(C)ccc3C)c(C)o2)c1	26.5%
CCOc1ccc(NC(=O)c2ccccc2CO)cc1	-2.4%
Brc1ccc(OCCn2ccnc2)cc1	10.0%
CCC[C@H]1C(=O)N2C(N(C)C)=Nc3ccc(C)cc3N2C1=O	-3.6%[12.8 µM]
CCOC(=O)c1c(COC(=O)c2ccco2)nc2ccccc2[n+]1[O-]	5.4%
O=C(NCC1CCCO1)c1ccccc1-c1nc(-c2ccc(F)cc2)no1 (stereo not drawn)	-7.1%
O=C(CC1c2ccccc2Oc2ccccc21)N1CCN(c2ccccn2)CC1	110.2%
CC1(C)CC2CC(C)(CN2C(=O)c2cccs2)C1 (stereo not drawn)	10.3%
CCN(CC)c1ccc(-c2nn3c(-c4ccccc4OC)nnc3s2)cc1	93.7%
COc1ccc(S(=O)(=O)N(Cc2ccccc2)Cc2nc(-c3ccccc3)no2)cc1	-9.1%
OCCN1CCN(c2ncnc3nc[nH]c23)CC1	5.3%
O=C(CSc1ncnc2sc3c(c12)CCCC3)c1ccco1	-4.6%
O=CNc1ccccc1Oc1ccccc1	-5.6%
CN=C(SCc1ccccc1)c1c(O)n(C)c(=O)n(C)c1=O	-3.9%
CCOC(=O)N1CCN(C(=O)c2ccc3nc4cc(Cl)ccc4c(=O)n3c2)CC1	82.3%
COc1ccc(-n2c(=O)c(-c3cn(C)c4ccccc34)nc3cnc(OC)nc32)cc1	1.1%
Cc1ccc2c(c1)N(CC(=O)NCCc1c[nH]c3ccccc13)C(=O)CO2	10.1%
COc1cc(/C=C(\C#N)C(N)=O)cc(CSc2nc3ccccc3s2)c1O	3.8%
Cc1ccc(NC(=O)Cc2cn3ccsc3n2)nc1	-15.5%
CCCC/C=C/C(NC(=O)c1cccs1)c1ccccc1 (stereo not drawn)	-18.8%
CCOc1ccccc1CN(CCc1ccc2c(c1)OCO2)Cc1ccccn1	38.8%
CC(=O)N1[C@H](Cc2ccccc2)C=C[C@]1(C)C(=O)NCc1ccccn1	10.4%
CC(C)CC(OC(=O)c1ccco1)C(=O)NCC1CCCO1 (stereo not drawn)	11.0%
CN1C(=O)c2ccccc2N(C)C1c1ccc2c(c1)OCO2 (stereo not drawn)	5.5%
COc1ccc(-c2cn3c(C)c(C(=O)NCCN4CCOCC4)sc3n2)cc1	139.2%
COCCCNC(=O)c1cccc(OC)c1OC	3.9%
c1cc(-c2noc(CC3CCCCC3)n2)ccn1	0.2%
CN(C)Cc1cc(C(C)(C)C)cc(CNC2CCCCC2)c1O	7.0%[5.75 µM]
COc1ccccc1NC(=O)C1=C(C)NC2=C(C(=O)CCC2)C1c1ccc(C)o1 (stereo not drawn)	34.6%
O=C(Oc1ccc2c(c1)OCO2)c1cc2c(s1)CCC2	-17.7%
COc1ccc(OC)c(NC(=O)c2cc(-c3ccc(C)cc3O)n[nH]2)c1	-18.8%
CCCS(=O)(=O)N1CCC(C(=O)N2CCC(Cc3ccccc3)CC2)CC1	96.5%
O=C(NCCCN1CCN(c2ccccc2F)CC1)C1CCC(=O)N1C1CCCC1 (stereo not drawn)	20.3%
Cc1cc(Cl)c(S(=O)(=O)Nc2ccccn2)cc1OCC(N)=O	7.8%
CC(=NCCN1CCOCC1)C1=C(O)c2ccccc2C1=O	4.3%
C[C@@H](CCC[C@@H]1SC[C@H]2NC(=O)N[C@H]12)C(=O)O	-0.3%[5.75 µM]
O=S1(=O)CCN(c2ccccc2CC(c2c[nH]c3ccccc23)c2c[nH]c3ccccc23)CC1	17.3%[5.75 µM]
N#CCCCSc1nnnn1-c1cccc(Cl)c1	14.9%
CCNC(=O)c1sc(=S)n(CC)c1N	-1.5%
CCOC(=O)C1CCN(S(=O)(=O)Cc2ccc(Cl)cc2)CC1	28.9%
COc1cccc(OCc2nnc(SC)n2C)c1	-4.5%
CC1CN(C(=O)c2cccc(S(=O)(=O)N3CCOCC3)c2)CC(C)O1 (stereo not drawn)	-0.8%
COc1ccccc1N1CCN(C(=O)c2cc3cc(Br)ccc3oc2=O)CC1	95.9%
COc1cccc(CC(NC(C)=O)C(=O)NC2CCN(c3nc(C)cc(C)c3C#N)CC2)c1OC (stereo not drawn)	132.1%
COc1ccc(Cl)cc1NC(=O)COC(=O)CCNC(C)=O	1.2%
COC(=O)c1c(-c2cccs2)csc1NC(=O)c1cccnc1	100.6%
COc1ccc(C(=O)Oc2ccc(C(C)=O)cc2)c(OC)c1	37.7%

Next structures follow:
SMILES	AmpC nodet inh
O=C1CC(=O)N(c2ccc3c(c2)OCO3)C(=O)N1	6.0%
CCNS(=O)(=O)c1ccc(C)cc1	-4.9%
O=c1ccc(S(=O)(=O)N2CCC(Cc3ccccc3)CC2)c[nH]1	15.1%
Fc1ccc(-c2nnc(NC3=NCCCCC3)o2)cc1	5.7%
CN(Cc1cccs1)C(=O)COc1cccc(-n2cnnn2)c1	-9.3%
COc1ccc(Oc2ncc3nc(C)c(=O)n(-c4ccccc4)c3n2)cc1	44.9%
CN1CCN(C(=O)c2cccc(COc3cc(Cl)ccc3Cl)c2)CC1	145.3%
COC(=O)c1cccc(NC(=O)CSc2nnnn2C)c1	-17.5%
COc1ccc(CCNC(=O)CSc2nc(N)c3c(C)c(C)oc3n2)cc1OC	23.2%
O=C(c1ccccc1)c1nnc(-c2ccncc2)o1	4.7%
O=C(NC1CCCCC1)C1CCN(c2nccs2)CC1	16.0%
COc1ccc2[nH]c(=O)c(CN(C(=O)c3ccncc3)C(C)(C)C)cc2c1	5.4%
CCOC(=O)c1c(NC(=O)c2nn(CC)cc2Br)c(C#N)cn1-c1ccccc1	44.4%
COc1ccccc1Nc1nc(N)nc(CSc2nncn2C)n1	-4.3%
O=C(c1ccccc1)c1cccc(NC(=O)c2ccco2)c1	-8.1%
O=C(NCc1ccc(F)cc1)c1c(O)c2cccc3c2n(c1=O)CCC3	-7.1%
CC1CCCCN1S(=O)(=O)c1cccc2cccnc12 (stereo not drawn)	7.5%
COc1ccc2ccc(Oc3ncccn3)cc2c1	-0.5%
O=C(CSc1nc2cc(Cl)ccc2s1)c1ccco1	-2.6%
COc1ccc2nc(C)cc(N3CCOCC3)c2c1	-14.9%
CS(=O)(=O)Nn1cnc2ccccc2c1=O	-1.2%
CCOC(=O)c1sc(NC(=O)CCN2CCOCC2)c(C(=O)OCC)c1C	39.0%
O=C(O)CC[C@@H](NC(=O)c1ccccc1C(=O)O)C(=O)O	12.4%
O=c1[nH]c(=O)n([C@H]2C[C@H](O)[C@@H](CO)O2)cc1Br	4.6%
O=C(NCc1ccccc1F)C1CCCN(C(=O)NC2CCCCC2)C1 (stereo not drawn)	12.2%
Cc1cc(NC(=O)CCc2ccc(C)o2)no1	6.4%
C=CCc1cccc2cc(C(=O)N(C)C)c(=O)oc12	11.6%
Cc1ccc(C2Nc3ccccc3C(=O)N2Cc2ccco2)cc1 (stereo not drawn)	-1.7%
Cc1cc(C)cc(N2CCCn3c2nc2c3c(=O)n(CC(=O)OCc3ccccc3)c(=O)n2C)c1	68.9%
O=C(NCCN1Cc2ccccc2C1=O)c1cccs1	-4.8%
COc1cc2c(cc1OC)-c1cc(=Nc3c(C)cc(C)cc3C)n(C)c(=O)n1CC2	98.2%
O=C(c1ccco1)N1CCN(S(=O)(=O)c2ccc3c(c2)OCCO3)CC1	-0.8%
C=CCSC1=C(C#N)C(c2cc(Br)c(O)c(OC)c2)CC(=O)N1 (stereo not drawn)	-5.6%
CC(C)C(NS(=O)(=O)c1ccc2c(c1)OCCO2)C(=O)NCCc1ccccn1 (stereo not drawn)	-8.1%
Cn1nnc2cc(NC(=O)NCc3ccc4c(c3)OCO4)ccc21	-6.6%
O=C(CCN1C(=O)c2cccnc2C1=O)NC1CCCCCC1	-3.7%
CCOCCCNC(=O)C(NC(=O)CNC(C)=O)c1ccc(Cl)cc1 (stereo not drawn)	1.3%
CCOC(=O)c1cnc(-n2nc(C)cc2C)nc1NC	20.1%
N[C@H](CCC(=O)NCC(=O)O)C(=O)O	6.7%
CN1CCN(c2ccnc(-c3cccnc3)n2)CC1	-0.5%
CS(=O)(=O)N(Cc1nc2sc3c(c2c(=O)[nH]1)CCCC3)C1CCCCC1	32.7%
O=C(CSc1nc2ccccc2[nH]1)Nc1ccccc1N1CCOCC1	10.2%
CCCC(=O)OCCn1c(Br)nc2c1c(=O)[nH]c(=O)n2C	2.0%
CC(C)NC(=O)COC(=O)c1ccc(O)cc1	2.2%
O=c1c2ccccc2nc(-c2ccoc2)n1CCc1ccccc1	82.4%
COc1cc(C(=O)COC(=O)Cc2cnc3sccn23)cc(OC)c1OC	15.3%
O=S1(=O)C=C(Oc2ccc(F)cc2)c2ccccc21	-13.0%
Cc1noc(C)c1COC(=O)c1cc2c(C)nn(-c3ccc(F)cc3)c2s1	41.9%

Gathered by group, those above with an NH in an aromatic ring (15)
SMILES	AmpC nodet inh
CC(C)C1C(C#N)=C(N)Oc2n[nH]c(-c3ccccc3)c21 (stereo not drawn)	-14.9%
O=C(O)c1cc2cc(OCc3ccccc3)ccc2[nH]1	?
CN1CCN(c2nc3c(c(=O)[nH]c(=O)n3C)n2CCSc2nc3ccccc3s2)CC1	49.8%
COc1ccc2c(c1OC)C(=O)N(c1ncn[nH]1)C2	-9.3%
Cc1ccccc1-n1c(=O)cc(NCC2CCCO2)[nH]c1=O (stereo not drawn)	-5.2%
OCCN1CCN(c2ncnc3nc[nH]c23)CC1	5.3%
Cc1ccc2c(c1)N(CC(=O)NCCc1c[nH]c3ccccc13)C(=O)CO2	10.1%
COc1ccc(OC)c(NC(=O)c2cc(-c3ccc(C)cc3O)n[nH]2)c1	-18.8%
O=S1(=O)CCN(c2ccccc2CC(c2c[nH]c3ccccc23)c2c[nH]c3ccccc23)CC1	17.3%[5.75 µM]
O=c1ccc(S(=O)(=O)N2CCC(Cc3ccccc3)CC2)c[nH]1	15.1%
COc1ccc2[nH]c(=O)c(CN(C(=O)c3ccncc3)C(C)(C)C)cc2c1	5.4%
O=c1[nH]c(=O)n([C@H]2C[C@H](O)[C@@H](CO)O2)cc1Br	4.6%
CS(=O)(=O)N(Cc1nc2sc3c(c2c(=O)[nH]1)CCCC3)C1CCCCC1	32.7%
O=C(CSc1nc2ccccc2[nH]1)Nc1ccccc1N1CCOCC1	10.2%
CCCC(=O)OCCn1c(Br)nc2c1c(=O)[nH]c(=O)n2C	2.0%

Compound activity (PubChem)

The list is partial. The share of hits here may be higher or lower than overall.
